Compound activity (PubChem)
HPGD inh = qHTS Assay for Inhibitors of HPGD (15-Hydroxyprostaglandin Dehydrogenase) | actives 4.3% (n = 150,000) | purified HPGD, NADH fluorescence kinetic, PGE2 substrate | 15-hydroxyprostaglandin dehydrogenase [NAD(+)] (Homo sapiens), P15428 | Potency, µM, inactives show top-dose activity change, negative = inhibition, actives largely listed as inhibitors; active = well fitted inhibition curve with a large enough effect (not every such curve was filed as active); inconclusive = small, poorly fitted or top-dose-only effect, or another doubt; inactive = no such curve, though single readings can be large or run the other way;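 also: top concentration of the series not given in the record; plate controls included wells without enzyme; inactives centre near -10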
Target sequence (P15428 whole entry, looked up): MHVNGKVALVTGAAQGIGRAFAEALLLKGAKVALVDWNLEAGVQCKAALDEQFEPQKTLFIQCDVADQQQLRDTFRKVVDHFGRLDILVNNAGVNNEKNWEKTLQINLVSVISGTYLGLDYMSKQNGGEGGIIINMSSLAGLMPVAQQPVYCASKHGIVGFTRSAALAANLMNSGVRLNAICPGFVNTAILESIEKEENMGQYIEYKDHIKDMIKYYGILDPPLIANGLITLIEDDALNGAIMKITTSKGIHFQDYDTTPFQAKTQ
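20 nM HPGD preincubated 15 min at room temperature with compound in 50 mM Tris-HCl pH 8, 0.01% Tween 20. Started with 1 mM NAD+ and 30 uM prostaglandin E2; NADH fluorescence (360/450 nm) read 5 times over 30-s intervals, last minus first.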
* hit, by the source's call; ? = inconclusive; & = joins results of further samples. % is scaled to controls: 0 for no effect and ±100 for the full control effect; potency is read from the fitted curve at half-maximal effect. These rows are one share of the data; the hit share may differ from the screen's.

HPGD inh,smiles
-3.7%,CCn1c(=O)n(CC)c2cc(S(=O)(=O)N3CCC(c4ccccc4)CC3)ccc21
?,O=C(COC(=O)c1cc(S(=O)(=O)NCc2ccccc2)ccc1O)NCc1ccccc1
-10.7%,CCOCCCn1c(SCC(=O)/C(C#N)=C(\C)N)nc2ccccc2c1=O
39.8µM*,O=C(c1ccccc1)C(Sc1ncn[nH]1)c1ccccc1 (configuration not stated)
-16.9%,O=C1OC(/C=C/c2ccccc2)=NC/1=C/C=C/c1ccccc1
-9.2%,CC1CCCN(Cc2cnc(Cl)s2)C1 (configuration not stated)
?,COc1ccc(-n2c(=O)c(-c3cccs3)nc3cnc(N4CCNCC4)nc32)cc1
-28.7%,Cc1cccc(N=C2NC(=O)/C(=C/c3cn(C)c4ccccc34)S2)c1
-27.1%,COc1ccc(OCC(=O)Nc2cccc(-c3nc4ccccc4[nH]3)c2)cc1
?,CCOc1ccc(NC(=S)NC(=O)c2c(Br)cnn2C)c([N+](=O)[O-])c1
-13.2%,O=C(Cn1cnc2c(nnn2Cc2ccccc2)c1=O)N1CCN(c2ccccc2)CC1
-7.7%,Cc1ccc(-c2c(C)n([O-])c3c([n+]2=O)CCCC3)o1
-13.0%,COc1ccc(C(=O)NNC(=S)NC(=O)c2ccco2)cc1
-23.0%,O=C(COc1ccccc1)NNC(=O)c1cccs1
-5.8%,CS(=O)(=O)N(CC(=O)NC1CC1)c1cccc(F)c1
-1.8%,CCCc1n[nH]c(=O)[nH]1
-18.7%,O=S(=O)(c1ccc(OCC(O)CN2CCN(c3ccccc3)CC2)cc1)N1CCOCC1 (configuration not stated)
-2.6%,C=C1C([C@@]2(C)C(OC(C)=O)CC(=O)O[C@@](C)(COC(C)=O)C2CC(=O)OC)C(OC=O)C(OC(=O)C(O)C(C)CC)[C@]2(C)C(c3ccoc3)CC(=O)C12O (some centres not stated)
-7.6%,CSCCC1NC2(C(=O)Nc3c(Cl)cccc32)[C@@H]2C(=O)N(C3CCCC3)C(=O)[C@H]12 (some centres not stated)
-13.3%,O=C(Nc1ccccc1N1CCN(c2ccccc2)CC1)C12CC3CC(CC(C3)C1)C2
-11.3%,Cc1cc(NC(=O)c2cc(C(C)C)on2)nn1Cc1ccc(Cl)cc1
-27.6%,O=C(O)Cn1nnc(-c2cccs2)n1
-3.7%,COc1ccc(S(=O)(=O)NC2CC3CCC2C3)cc1Cl (configuration not stated)
-1.0%,O=P(O)(CN1CCCCC1)C1CCCCC1O (configuration not stated)
-7.4%,Cc1ccc(N=Nc2c(N)[nH]n3c(=O)cc(C)nc23)cc1
?,O=C(Nc1cc(S(=O)(=O)Nc2ccc(Cl)cc2)ccc1N1CCCCC1)c1ccc(F)cc1Cl
-4.9%,CCOC(=O)N1CCN(Cc2nc(-c3ccc(Cl)cc3)no2)CC1
-0.8%,COc1ccc(C(C(=O)NC2CCCCC2)N(C(=O)c2cccs2)c2ccc3c(c2)OCO3)cc1 (configuration not stated)
-2.6%,O=c1c2ccccc2[nH]c(=S)n1CCCN1CCN(C2CCCCC2)CC1
-10.8%,O=C(OCc1cn(-c2ccc(Cl)cc2)nn1)c1ccccc1
-1.9%,CC(C)(C)c1cnnn1-c1ccc(NC(=O)c2ccc(Br)o2)cc1
-22.4%,CCNC(=S)N/N=C/c1ccc(OCc2ccc(C(=O)OC)cc2)cc1
1.4%,Cc1nc(SC2C=CS(=O)(=O)C2)n[nH]1 (configuration not stated)
-12.1%,Fc1ccccc1CSc1nnc(-c2cnccn2)n1Cc1ccco1
-11.3%,COc1ccc(/C=C(\NC(=O)c2ccc(OC)c(OC)c2)C(=O)NCCc2c[nH]c3ccccc23)cc1
-22.7%,CCOc1ccc2cc(C#N)c(SCC(=O)NC(C)CC)nc2c1 (configuration not stated)
-1.9%,O=c1c(-c2ccnn2-c2cccc(Cl)c2)cnc2n1CCS2
-0.4%,COc1ccc(NC(=O)CN2CCC3(O)CCCCC3C2c2ccccc2OC)cc1 (configuration not stated)
?,O=C(NC(=O)c1ccccc1F)Nc1nc(-c2cccs2)cc(C(F)(F)F)n1
5.62µM*,N#CC1=C2SCN(c3ccc(F)cc3)CN2C(=O)CC1c1cccc(F)c1 (configuration not stated)
20µM*,Cn1c(SCC(=O)N/N=C/C=C\c2ccco2)nc2ccccc21
-2.0%,CCCCCn1c(=O)[nH]c2cc(C(=O)N3CCN(Cc4ccc5c(c4)OCO5)CC3)ccc2c1=O
?,CCCN1C(=O)c2ccccc2NC1c1ccc(OC)cc1O (configuration not stated)
-2.9%,Cc1cc(C(=O)N2CCN(Cc3ccccc3)CC2)on1
?,O=C(Nc1ccccc1)NC1(C(=O)NCc2cccs2)CCCCC1

Random excerpt: 5 compounds from above, in no set order.
HPGD inh,smiles
-22.4%,CCNC(=S)N/N=C/c1ccc(OCc2ccc(C(=O)OC)cc2)cc1
20µM*,Cn1c(SCC(=O)N/N=C/C=C\c2ccco2)nc2ccccc21
-9.2%,CC1CCCN(Cc2cnc(Cl)s2)C1 (configuration not stated)
-10.7%,CCOCCCn1c(SCC(=O)/C(C#N)=C(\C)N)nc2ccccc2c1=O
-23.0%,O=C(COc1ccccc1)NNC(=O)c1cccs1

Going on with the list:
HPGD inh,smiles
-8.7%,O=C(C1=C(O)C(=O)N(Cc2ccco2)C1c1cccs1)c1cccs1 (configuration not stated)
-8.0%,Cn1c(SCc2nc3ccccc3n2CCO)nc2ccccc21
-6.0%,CCOC(=O)N1CCC(NC(=O)c2cc(S(=O)(=O)N3CCOCC3)ccc2F)CC1
-27.9%,CC(C)n1c(C(=O)OCC(=O)NCc2ccc3c(c2)OCO3)cc2occc21
-1.0%,Cc1ccc(-c2cc(N)n3nc(-c4ccc(C)cc4)cc3n2)cc1
-5.2%,Cc1ccc(CNC(=O)C(=O)NCC2OCCN2S(=O)(=O)c2cccs2)cc1 (configuration not stated)
-8.4%,Cc1[nH]c(=O)[nH]c(=O)c1S(=O)(=O)N1CCCC(C(=O)N2CCC(Cc3ccccc3)CC2)C1 (configuration not stated)
-6.0%&-0.7%&0.9%,O=C(O)C1=CCNCC1
10µM*,N#Cc1c(-c2ccco2)nc(SCc2ccc(F)cc2)[nH]c1=O
-14.8%,Cc1nc(SCC(=O)c2ccc(Cl)cc2)c([N+](=O)[O-])[nH]1
-9.0%,CC(C)C(=O)C(C)(C)CCc1ccccn1
-17.5%,CCN(CC)CC(=O)Nc1ccc2c(c1)Nc1ccccc1CC2
?,CCOC(=O)C1CCCN(C(=O)c2ccc3c(=O)n(CCOC)c(=S)[nH]c3c2)C1 (configuration not stated)
-11.8%,COc1cccc(OCCCCN2CC(C)OC(C)C2)c1 (configuration not stated)
-8.5%,CC(=O)c1cccc(NC(=O)c2ccc(-c3ccccc3[N+](=O)[O-])o2)c1
-1.1%,Cc1nc(SC(C(=O)c2ccccc2)c2ccccc2)n[nH]1 (configuration not stated)
-6.0%,Cc1ccsc1C(=O)NNC(=O)C1C2C=CC(C2)C1C(=O)O (configuration not stated)
-5.8%,CC(=O)c1ccc(N(C)C)c2c(N(C)C)cccc12
-16.2%,C=CCNC(=O)/C(=C\C=C\c1ccccc1)NC(=O)c1ccccc1Cl
0.2%,CCCCNC(=O)C1CCN(S(=O)(=O)c2cnc[nH]2)CC1
-14.2%,Cc1nn(C(C)C(=O)NNC(=S)Nc2ccc(Cl)cc2)c(C)c1[N+](=O)[O-] (configuration not stated)
-11.0%,O=S(=O)(c1cccs1)N1CCN(C/C=C/c2ccccc2)CC1
-19.3%,Clc1ccc(-c2cc(CSc3ccccc3)on2)cc1
-4.1%,CCOC(=O)c1cccc(NC(=O)Cn2c(CC(=O)NC)nc3ccccc32)c1
-3.3%,CCOC(=O)c1csc(NC(=O)CSc2nnc(C3CC3)n2C)n1
-6.4%,CC1Cc2ccccc2N1C(=O)CSc1nnc(CSc2ncccn2)n1C (configuration not stated)
-8.1%,O=C(c1cccs1)N1CCN(C2CCCCC2)CC1
-3.9%,Cc1cc(C)c(NC(=O)OCCN2CCOCC2)c(C)c1
-20.1%,COc1ccc(N2CCN(CC(=O)Nc3nnc(-c4ccccc4)s3)CC2)cc1
-13.4%,CCC(C)NCCCOc1ccc([N+](=O)[O-])cc1 (configuration not stated)

In another format: results already given
smiles	HPGD inh
Cc1ccsc1C(=O)NNC(=O)C1C2C=CC(C2)C1C(=O)O (configuration not stated)	-6.0%
CC(=O)c1ccc(N(C)C)c2c(N(C)C)cccc12	-5.8%
C=CCNC(=O)/C(=C\C=C\c1ccccc1)NC(=O)c1ccccc1Cl	-16.2%
CCCCNC(=O)C1CCN(S(=O)(=O)c2cnc[nH]2)CC1	0.2%
Cc1nn(C(C)C(=O)NNC(=S)Nc2ccc(Cl)cc2)c(C)c1[N+](=O)[O-] (configuration not stated)	-14.2%
O=S(=O)(c1cccs1)N1CCN(C/C=C/c2ccccc2)CC1	-11.0%

New compounds follow.
HPGD inh,smiles
0.5%,C/C(=N\N1C(=O)c2ccccc2C1=O)c1cccc([N+](=O)[O-])c1
-1.8%,CCN(CC)Cc1nc2c(c(=O)[nH]1)C1(CCCCC1)Cc1ccccc1-2
-23.4%,COC(=O)c1c(NC(C)=O)sc2c1CCCC2
-3.6%,Cn1c2c(c(=O)n(C)c1=O)CN(CCc1ccccc1)CN2
-16.3%,O=C(OCC(=O)c1c[nH]c2ccccc12)c1cc2ccccc2cc1O
-10.2%,COc1cccc(C(=O)OCCN2C(=O)c3ccccc3C2=O)c1OC
-16.9%,CCOC(=O)C1CCN(C(=O)CCn2c(=O)[nH]c3ccccc3c2=O)CC1
-5.4%,O=C(c1ccc(Cl)c(Cl)c1)c1cnc(Nc2ccccc2)s1
1.9%,CCOP(=O)(O)c1ccccc1OCCOCCOc1ccccc1P(=O)(O)OCC
-13.0%,CCOC(=O)c1c(NC(=O)CC2Nc3cc(C)c(C)cc3NC2=O)sc(C)c1C (configuration not stated)
-4.1%,CCc1nn(-c2cc(Oc3cccc4ccccc34)nc(-c3ccccc3)n2)c(N)c1C#N
3.0%,Cc1cccc(C)c1NC(=O)C1(N2CCN(C(=O)c3ccco3)CC2)CCCCC1
-8.1%,O=C(CCC1COc2ccccc2O1)Nc1ccccn1 (configuration not stated)
-7.2%,COc1cc(Cl)c(C)cc1NC(=O)CSc1nnc(-c2cccnc2)n1Cc1ccco1
-4.8%,COc1ccc(CCN2C(=O)c3cccnc3C2=O)cc1OC
25.1µM*,O=C(CSc1ccccn1)Nc1ccc2c(c1)oc1ccccc12
-12.4%,CCC(=O)OCC(=O)c1c(N)n(Cc2ccccc2)c(=O)n(C)c1=O
0.8%,CC12CCC3C(CC3(C)C)C(C)(CCC1=O)O2 (configuration not stated)
?,O=C(CN1C(=O)CCC1=O)Nc1nc(-c2nc3ccccc3s2)cs1
?,Cc1nnc(NC(=O)c2oc3cc(C)c(C)cc3c2C)s1
-2.1%,C=CCOc1ccc(CNC(C)(C)C)cc1OC
-15.8%,CC(C)=C1SC(N2CCN(Cc3ccccc3)CC2)=NC1=O
?,Cc1ccc(-n2nc3ccc(N)cc3n2)cc1
?,O=C(Nc1nccs1)c1cc(-c2ccccc2)nn1-c1ccccc1
-14.1%,Cc1ccc(CCn2c3c(c4ccccc42)CN(C)CC3)cn1
-10.1%,FC(F)(F)c1ccc(C2[C@H]3CN(CC4CCCCC4)[C@H](c4ccccc4)C34CC2(c2ccccc2)C4)cc1 (some centres not stated)
-13.4%,COc1ccc(-c2cc(=O)oc3c(C)c(O)c(CN(C)C)cc23)cc1
-16.7%,Clc1ccc2c(N3CCCC3)ccnc2c1
?,CCCCCC(=O)Nc1nc(C)c(-c2csc(Nc3cc(OC)ccc3OC)n2)s1
-8.1%,O=C(CSc1nnc(-c2ccc(F)cc2)n1-c1ccccc1)NCCN1C(=O)CSC1=O
-5.5%,CC(=O)NC(=S)Nc1ccc(NC(=O)COc2ccc(C(C)C)cc2)cc1
-3.7%,COc1cc(C2NC(=S)NC(C)=C2C(=O)OC(C)C)ccc1OC(C)C (configuration not stated)
0.4%,COc1cc(OC)cc(C(=O)NC2CCN(Cc3nnnn3Cc3cccs3)CC2)c1
-11.0%,Cc1cc(C(=O)N/N=C2\CCCC(C)C2)n[nH]1 (configuration not stated)
-25.1%,Cc1ccc(-n2nc(C)c3c2OC(N)=C(C#N)C3c2ccc(C)o2)cc1 (configuration not stated)
-13.5%,Cc1ccc(NC(=O)c2ccc(S(=O)(=O)N3CCC(C)CC3)cc2)cc1
-12.7%,O=C(CC1C(=O)N(c2ccc(Cl)cc2)C(=S)N1CCc1ccncc1)Nc1ccc(F)cc1 (configuration not stated)
-5.8%,O=C(Cl)c1cccc([N+](=O)[O-])c1
-8.5%,COc1ccc(-c2cn[nH]c2N)cc1OC
-33.5%,COC(=O)c1cc2oc(C)cc2n1CC(=O)Nc1ccc(OC)c(OC)c1OC
-1.4%,Cn1c(SCC(=O)O)nnc1C1CCCCC1
-11.1%,CCCS(=O)(=O)N1CCCC(C(=O)N2CCN(c3ccccc3)CC2)C1 (configuration not stated)
-14.8%,Cc1ccc(C(=O)CSc2nnc(COc3ccc(C#N)cc3)n2-c2ccccc2)cc1
